VACV Venus inh = vaccinia inhibition (Venus reporter). Vaccinia virus Venus reporter expression, fluorescence. Potency, µM (top dose mostly 36.5 µM), inactives show top-dose activity change, negative = inhibition, hits mostly inhibitors. actives 0.46% (n = 330,000). AID 720580; active means well fitted inhibition curve with a large enough effect; inconclusive means small, poorly fitted or top-dose-only effect; inactive means no such curve, though single readings can be large or run the other way; tested in A549 cells; also: nearly all actives have a fitted effect of over 30% in size; inactives centre near -10
Vaccinia mCherry = inhibitors of vaccinia virus infection (mCherry reporter signal). Vaccinia virus mCherry reporter infection, fluorescence; about a quarter of the inactives have no number. Potency, µM (doses to about 36.5 µM), inactives show at the highest dose activity change, negative = inhibition, usual class: inhibitors. actives 0.63% (n = 310,000); active = well fitted inhibition curve with a large enough effect; inconclusive = small, poorly fitted or top-dose-only effect; inactive = no such curve, though single readings can be large or run the other way; tested in A549 cells; also: nearly all actives have a fitted effect of over 35% in size; inactives centre near -10
* = called active by the depositor; i = inactive; ? = inconclusive; . = not tested or not shown; [ ] = another dose, or the depositor's remark. % is scaled to controls: 0 for no effect and ±100 for the full control effect; potency is read from the fitted curve at half-maximal effect. Compounds as they come; any-hit rate near 0.87%.

Sample of the layout, 6 compounds:
SMILES	VACV Venus inh	Vaccinia mCherry
O=C(NCCCc1nc2ccccc2[nH]1)c1ccc(F)cc1	-10%	i
O=C(NCCc1ccc(Cl)cc1)c1ccc(CS(=O)(=O)Cc2ccc(Cl)cc2)o1	-14%	-14%
COc1ccc(-c2sc3ccc(OC)cc3c2C#Cc2ccccn2)cc1	-20%	?
COc1ccccc1OCC(=O)NCCSCc1ccc(Cl)cc1	-4%	-10%
CCN(C(=O)c1cc2cccc(OC)c2oc1=O)C1CCCCC1	5%	.
CN(C(=O)Cn1nnc(-c2ccc(S(C)(=O)=O)cc2)n1)c1ccccc1	-2%	7%

This part in full, repeating the preview:
SMILES	VACV Venus inh	Vaccinia mCherry
O=C(NCCCc1nc2ccccc2[nH]1)c1ccc(F)cc1	-10%	i
O=C(NCCc1ccc(Cl)cc1)c1ccc(CS(=O)(=O)Cc2ccc(Cl)cc2)o1	-14%	-14%
COc1ccc(-c2sc3ccc(OC)cc3c2C#Cc2ccccn2)cc1	-20%	?
COc1ccccc1OCC(=O)NCCSCc1ccc(Cl)cc1	-4%	-10%
CCN(C(=O)c1cc2cccc(OC)c2oc1=O)C1CCCCC1	5%	.
CN(C(=O)Cn1nnc(-c2ccc(S(C)(=O)=O)cc2)n1)c1ccccc1	-2%	7%
COc1ccccc1NC(=O)COc1ccc(/C=N/NS(=O)(=O)c2ccc(C)cc2)cc1	-27%	?
O=C(CSc1cn(CC(=O)N2CCCC2)c2ccccc12)NCC1CCCO1 (centres undefined)	0%	-11%
COc1ccc(C(=O)c2c(-c3cccc(C)c3)oc3ccc(N4CCOCC4)cc23)cn1	-11%	-5%
Clc1nc2sccn2c1/C=N/n1cnc2ccccc21	-10%	-22%
O=C1CN(CC(=O)N2CCCCC2)c2ccccc2O1	-14%	?
O=C(Nc1ccc(N2CCN(Cc3ccccc3)CC2)cc1)c1ccccc1[N+](=O)[O-]	-9%	-5%
CCc1ccc(NC(=O)CSc2nc(=O)n(Cc3ccco3)c3c2CCC3)cc1	-29%	?
Cc1ccc(NC(=O)C2CCCN(S(=O)(=O)c3ccc(-n4cnnn4)cc3)C2)cc1 (centres undefined)	0%	-2%
NC(CCC(=O)NC(CS)C(=O)NCC(=O)O)C(=O)O (centres undefined)	-11%	i
CC1CN(C(=O)/C=C/c2ccc3c(c2)OCO3)CC(C)O1 (centres undefined)	-13%	?
CN(C)C(=O)C[n+]1ccc(/C=N/O)cc1	-9%	-12%
CCOc1cc(C2NC(=S)NC(C)=C2C(=O)Nc2ccc(OC)cc2)ccc1O (centres undefined)	-8%	-8%
O=C(O)c1cc2c(cc1NC(=O)c1ccccc1C(F)(F)F)OCCCO2	-4%	-11%
CCOc1ccc(S(=O)(=O)N2CCCC(C(=O)NCc3ccccn3)C2)cc1C (centres undefined)	?	-20%
O=C1CCCC2=C1C(c1cccc(O)c1)c1c(ccc3ncccc13)N2 (centres undefined)	-7%	-9%
COC(=O)C1=C(C)N(CCc2ccccc2)C(=O)C1	-4%	-13%
CCC1(CC)NC(=O)N(CC(=O)OCC(=O)NC(=O)c2ccc(Cl)cc2)C1=O	-12%	-9%
Cc1cccc(-n2c(=O)[nH]c3c(C(N)=O)nc(C(C)C)nc32)c1	-12%	-3%
NC(=O)C1CCN(C(=O)c2cn(-c3ccccc3)nc2-c2cccnc2)CC1	-12%	i
SMILES	VACV Venus inh	Vaccinia mCherry
Cn1nc(C(C)(C)C)cc1NC(=O)C1(C)CCN1C(=O)C1(c2ccccc2)CC1 (centres undefined)	0%	i
Cc1cc(OCC(=O)NCc2ccccn2)c2c(C)c(Cc3ccccc3)c(=O)oc2c1	-18%	-10%
COC(=O)[C@@]1(Cc2ccccc2)[C@H]2C(=O)N(C)C(=O)[C@H]2[C@H]2CN=C(SC)N21	-9%	-2%
O=C(Nc1cccc([N+](=O)[O-])c1)c1ccc2ccccc2c1O	?	10µM*
COc1cc(OC)cc(-c2c(C#Cc3ccsc3)c3cc(-c4cc(F)cc(F)c4)ccc3n2C)c1	-10%	-10%
CC1(C)Nc2ccccc2C(=O)N1NS(=O)(=O)c1ccccc1	3%	i
O=C1CSC(c2ccco2)N1 (centres undefined)	10%	.
O=C(NC1CC1)c1ccc(S(=O)(=O)NCC2CCCCC2)cc1	-17%	-13%
Cc1ccc(S(=O)(=O)NC(Cc2ccccc2)C(=O)O)cc1C (centres undefined)	-5%	-13%
COc1ccc(C(=O)COC(=O)CN2C(=O)NC3(CC(C)CC(C)(C)C3)C2=O)c(OC)c1 (centres undefined)	5%	-9%
Cc1cccc(N(C(=O)c2csnn2)C(C(=O)NCc2ccccc2)c2ccc(C)o2)c1 (centres undefined)	-10%	-3%
O=C(O)C1CCCCC1C(=O)Nc1nc(-c2ccc(Cl)s2)cs1 (centres undefined)	-18%	-13%
O=C(Nc1ccccc1Cl)NC1(C(=O)NCc2ccncc2)CCCCC1	-17%	-14%
O=C(Nc1ccncc1)c1ccc2c(c1)C(=O)N(CC1CCCO1)C2=O (centres undefined)	-2%	i
COc1ccc(/C=N/Nc2nc(-c3ccc(C)cc3)c(NC(C)=O)s2)cc1OC	-5%	-11%
Cc1cccc(NC2=Nc3ccccc3N3C2=Nc2c(c(C)nn2-c2ccccc2)C3c2ccc(O)c(O)c2)c1 (centres undefined)	?	.
CCN(CC(=O)NC(C)(C)C)C(=O)CCl	?	?
C=C(C)CNC(=S)Nc1ccc(S(=O)(=O)Nc2cnc3ccccc3n2)cc1	7%[7.34 µM]	-2%[7.34 µM]
CCCCSc1nc(C)cc(SCC(=O)N/N=C/c2cccc(OC)c2O)n1	?	.
COC(=O)c1cc(NS(=O)(=O)c2cc(Br)cc3c2N(C(C)=O)CC3)cc(C(=O)OC)c1	-2%	-10%
CCc1ccc(NC(=O)c2noc3c2CCc2ccccc2-3)cc1	-9%	-15%
O=C(O)CCC(=O)N1CCc2cc(S(=O)(=O)N3CCC(Cc4ccccc4)CC3)ccc21	4%	49%[activator]
CCN(CCO)Cc1csc2cccc(Br)c12	-10%	-25%
O=C(Cn1c(=O)ccc2cc(S(=O)(=O)N3CCCC3)ccc21)NCc1ccc(F)cc1	-15%	-21%
COc1cc(/C=C/C(=O)OCC(=O)NCc2ccco2)ccc1OCC#N	-22%	-13%
SMILES	VACV Venus inh	Vaccinia mCherry
Cc1ccc(C2=NN(CC(=O)NCCC(C)C)C(=O)CC2)cc1	-6%	-17%
CC(C)(CC1(C)NC(=O)NC1=O)OCc1ccccc1 (centres undefined)	-16%	i
Cc1ccc(N2CC(C(=O)NC3=NCCS3)CC2=O)cc1C (centres undefined)	2%	.
CC1C(=O)OC2CCN3CC4OC4(COC(=O)C(C)(O)C1(C)O)C23 (centres undefined)	-3%	i
Cc1ccc2c(C)c(C(=O)N(Cc3ccc(N(C)C)cc3)C3CCS(=O)(=O)C3)oc2c1 (centres undefined)	-21%	-26%
COc1ccccc1CCNC(=O)c1c(N)[nH]c(C(=O)c2ccccc2)c1-c1ccc(Br)cc1	-18%	-14%
CCCN(CC(=O)Nc1ccccc1C)C(=O)c1ccc(Cl)c(S(=O)(=O)N2CCCC2)c1	-1%	-8%
Cc1ccc(S(=O)(=O)Nc2c(C)n(C)n(-c3ccccc3)c2=O)cc1C(=O)OCC(=O)N1CCCC(C)C1 (centres undefined)	-13%	-2%
Cc1cccc(NS(=O)(=O)c2c(C)noc2C)c1	-5%	-15%
COC(=O)c1ccc(COc2cccn3c(N(C)C(=O)CCC4CCCC4)c(C)nc23)cc1	-16%	25%
CC(=O)c1cccc(NC(=O)Cc2ccc3c(c2)CCCC3)c1	-13%	-14%
NNC(=O)Cn1c2ccccc2c2ccccc21	-14%	?
CC(=O)Nc1cccc(-c2cc(NC(C)=O)c3ncc(-c4ccccc4)n3c2)c1	-4%	12%
Cc1ccc([N+](=O)[O-])cc1NC(=O)c1cccs1	-1%	i
Oc1cccc(Nc2ncnc3c2oc2ccccc23)c1	?	-19%
Cc1ccc(S(=O)(=O)N2CCC(C(=O)N(C)C3CCS(=O)(=O)C3)CC2)cc1 (centres undefined)	-14%	i
Cc1cc(O)cc(=O)n1C	16%	i
CC(C)Sc1nc(N)nc2c1ncn2C1OC(CO)C(O)C1O (centres undefined)	2%	-9%
CCCCN(CCCNC(=O)CN1C(=O)COc2ccccc21)c1ccccc1	-27%	-5%
CC(O)CNC(=S)Nc1ccccc1 (centres undefined)	-17%	i
CCCCCNC(=O)C(C1CC1)n1c(=O)c(-c2cc3ccccc3[nH]2)nc2ccccc21 (centres undefined)	-23%	-21%
CC(=O)CSc1nsc(SCC(C)=O)c1C#N	15%	6%
CCOc1ccc(S(=O)(=O)N(CC)CC(=O)NCc2ccccn2)cc1C	?	?
Cc1ccc(C)c(NC(=O)CN(C)C(=O)c2ccc(Cl)nc2)c1	-13%	-13%
O=C(c1ccccc1NS(=O)(=O)c1ccc(F)cc1)N1CCOCC1	-8%	-8%

An excerpt from further up:
SMILES	VACV Venus inh	Vaccinia mCherry
CC(C)Sc1nc(N)nc2c1ncn2C1OC(CO)C(O)C1O (centres undefined)	2%	-9%
CCCCN(CCCNC(=O)CN1C(=O)COc2ccccc21)c1ccccc1	-27%	-5%
CC(O)CNC(=S)Nc1ccccc1 (centres undefined)	-17%	i

Later entries
SMILES	VACV Venus inh	Vaccinia mCherry
Cc1ccc2c(CC(=O)N3CCN(S(=O)(=O)c4ccccc4)CC3)coc2c1	-14%	-17%
COc1ccccc1CNC(=O)C(NC(=O)c1ccccc1C)C(C)C (centres undefined)	1%	3%
COc1ccc(C(=O)C(C)OC(=O)c2cccc(S(=O)(=O)Nc3c(C)n(C)n(-c4ccccc4)c3=O)c2)cc1 (centres undefined)	-17%	-1%
COc1ccc2nc(SCC(=O)Nc3ccc4c(c3)OCCO4)[nH]c2c1	-9%	-4%
C=CCOc1ccc(C=Nc2ccc(OC)cc2)c(O)c1	-9%	i
Cc1ccc(S(=O)(=O)N[C@H](C(=O)OCn2nnc3ccccc3c2=O)C(C)C)cc1	-27%	.
COc1ccc(-c2cn3nc(SCC(=O)Nc4ccc(C)c(Cl)c4)ccc3n2)cc1	-14%	-4%
COC(=O)c1sccc1NC(=O)c1ccncc1	3%	-5%
Cc1c(CNCCc2ccc(Cl)cc2)c(C(=O)O)c(C)n1Cc1ccccc1	-14%	-8%
Cc1ccc(-c2cc(C(=O)N3CCCC3)no2)cc1	-11%	-15%
CCN(C(=O)COC(=O)c1ccc(N2C(=O)c3ccccc3C2=O)cc1)C1CCS(=O)(=O)C1 (centres undefined)	-6%	-1%
CCOC(=O)c1cccc(NC(=O)c2oc3c(c2C)-c2nn(CC)cc2CC3)c1	-2%	-5%
CCOc1ccc(S(=O)(=O)NCCC(=O)Nc2ccncc2)cc1	-7%	-16%
CNC(=S)Nc1sc2c(c1C(=O)OC)CCC2	-16%	i
CC(=O)c1cccc(NC(=O)NCCS(C)=O)c1 (centres undefined)	-5%	-19%
COc1cc(NC(=O)c2ccc(-c3csc(C)n3)cc2)c(OC)cc1Cl	-12%	i
O=C(NC(=S)N1CCCCC1CO)C12CC3CC(CC(C3)C1)C2 (centres undefined)	-3%	-12%
CC(=O)Nc1ccc(OCC(O)CN2CCN(Cc3ccccc3)CC2)cc1 (centres undefined)	-12%	i
CCNc1nc(SC(C)C(=O)Nc2ccccc2)nc(N(C)C)n1 (centres undefined)	-12%	i
O=C(NC1(C(F)(F)F)NC(=O)N(Cc2cccnc2)C1=O)c1cccs1 (centres undefined)	-2%	.
Cc1cc(-c2ccccc2)c(C#N)c(=S)[nH]1	3%	i
COc1cc(S(=O)(=O)N2CCCN(C)CC2)ccc1NC(C)=O	-2%	-6%
Cc1ccc(C(=O)Nc2ccc3c(c2)ncn3C)cc1	-20%	i
O=C(NCC1CCCO1)c1cc(S(=O)(=O)N2CCOCC2)ccc1Cl (centres undefined)	-17%	-19%
Nc1nnc(CC(=O)N/N=C/c2ccccc2OCc2ccccc2F)s1	-10%	-3%
SMILES	VACV Venus inh	Vaccinia mCherry
COC(=O)CCN1CCC(C(N)=O)CC1	-9%	-6%
COc1ccc(OC)c(CCNC(=O)Cc2ccc(NC(=O)C3=C(C)OCCS3)cc2)c1	-16%	-13%
CC[C@]12c3[nH]c4ccc(OC)cc4c3CCN1C(=O)C(CC(=O)NC/C=C(\C)CCC=C(C)C)C[C@@H]2C(=O)N1CCN(C(=O)C2CC2)CC1 (some centres undefined)	-28%	-23%
Cc1cc(C(=O)COC(=O)c2ccc([N+](=O)[O-])o2)c(C)n1CC1CCCO1 (centres undefined)	-5%	-5%
COc1ccccc1CNC(=O)c1c(O)c2cc(OC)c(OC)cc2[nH]c1=O	-3%	-11%
COc1cc(O)cc2occ(-c3ccc(O)cc3)c(=O)c12	-4%	-12%
COc1ccc(C(=O)Nc2ncc3c(n2)CC(C)CC3=O)cc1 (centres undefined)	-21%	-2%
O=C(c1ccco1)N1CCN(C2c3ccccc3-c3ccccc32)CC1	-20%	-22%
O=C1NC(=O)C2(CCC(C(=O)O)C2)N1 (centres undefined)	-17%	.
Cc1nnc(SCC(=O)NC2CCCCC2)n1-c1ccccc1	-6%	i
Cc1ccc(SCC(=O)Nc2cccnc2)cc1	-15%	.
Cc1ccc2cc(CN(Cc3cccs3)Cc3nnnn3CC3CCCO3)c(=O)[nH]c2c1 (centres undefined)	-15%	0%

Compound profiles, as listed above.
`O=C(Cn1c(=O)ccc2cc(S(=O)(=O)N3CCCC3)ccc21)NCc1ccc(F)cc1` as listed: VACV Venus inh: -15%; Vaccinia mCherry: -21%
`O=C(Nc1ccc(N2CCN(Cc3ccccc3)CC2)cc1)c1ccccc1[N+](=O)[O-]` as listed: VACV Venus inh: -9%; Vaccinia mCherry: -5%
